Compound activity from PubChem BioAssay.
VDR inh = Inhibitors of the vitamin D receptor (VDR): qHTS; Vitamin D3 receptor (Homo sapiens), P11473; VDR-SRC2-3 peptide fluorescence polarization, 2 h; Potency, µM, for the others: max response, negative = inhibition, hits mostly inhibitors; 400,000 tested, 0.93% active; AID 504847, 2011; active means well fitted inhibition curve with a large enough effect; inconclusive means small, poorly fitted or top-dose-only effect, or another doubt; inactive means no such curve, though single readings can be large or run the other way; further: series mostly up to about 120 µM
Target sequence (P11473 whole entry, looked up): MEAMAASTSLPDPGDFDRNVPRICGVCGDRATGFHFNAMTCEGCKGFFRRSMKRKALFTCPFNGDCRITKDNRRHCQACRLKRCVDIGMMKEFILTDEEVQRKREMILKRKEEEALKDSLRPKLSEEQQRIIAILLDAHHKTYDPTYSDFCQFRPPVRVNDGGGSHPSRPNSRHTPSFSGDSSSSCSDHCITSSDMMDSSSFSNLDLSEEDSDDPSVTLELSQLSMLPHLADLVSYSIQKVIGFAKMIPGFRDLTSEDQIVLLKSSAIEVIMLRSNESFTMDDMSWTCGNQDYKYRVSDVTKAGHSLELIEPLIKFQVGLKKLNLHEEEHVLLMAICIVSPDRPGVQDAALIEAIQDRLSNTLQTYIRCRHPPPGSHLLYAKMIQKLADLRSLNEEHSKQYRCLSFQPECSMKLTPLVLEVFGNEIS
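Fluorescence polarization assay measuring small-molecule disruption of VDR binding to the coregulator peptide SRC2-3. Compounds were pin-transferred (23 nl) into the reagent mix and incubated 2 h at room temperature before reading.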
The depositor's hits bear a star; ? = inconclusive; & = joins results of further samples. On the % scale 0 is the no-effect control and ±100 the full control effect; potency means the concentration at half of the fitted maximal effect. This is a subset; count on the stated rates, not on these rows.

SMILES	VDR inh
COc1cc(-c2nnc(NC(=O)c3ccco3)o2)cc(OC)c1OC	8%
COc1ccc(NC(=O)CN2CCc3ccccc3C2)c(OC)c1	0%
COc1ccc(C(C(=O)NC(C)(C)C)N(C(=O)Cn2nnc3ccccc32)c2ccc(C(C)=O)cc2)cc1O (stereo not drawn)	-6%
CCOc1ccc(NC(=O)C2CCN(S(=O)(=O)CC)CC2)cc1	-4%
COc1cc(N2C(=O)c3ccccc3C2=O)c(Cl)cc1C(=O)OCC(=O)NCc1ccco1	-16%
Cc1cccc(NC(=O)NCCN2CCN(c3ccccc3)CC2)c1C	-8%
Cc1ccc2[nH]c3c(c2c1)SC(C)(C)CC3=O	?
CCCCC(=O)NCCc1cc2ccc(OC)cc2[nH]c1=O	-5%
Cc1nnc2n1N=CC=C(C(C)(C)C)S2	-3%
Clc1ccc(-n2cnc3c(Cl)ncnc32)cc1Cl	1%
Cc1ccccc1N1CCN(C(=S)c2ccccc2)CC1	-18%
Nc1nnnn1/N=C/c1ccccc1C(F)(F)F	-13%
COc1ccc(/C=C2\Oc3cc(OCC(=O)N4CCC[C@H]4C(=O)O)ccc3C2=O)cc1OC	-5%
Oc1ccc(-c2nccc(-c3ccc(F)cc3)n2)cc1	7%
Cc1ccc(S(=O)(=O)NC(=O)Nc2ccc(Cl)cn2)cc1	-6%
O=C(CSc1nc(=O)n(Cc2ccco2)c2c1CCC2)Nc1ccccc1C(F)(F)F	-1%
COc1cccc(CNC(=O)CSc2ncc(S(=O)(=O)c3ccc(C)c(Cl)c3)c(=O)[nH]2)c1	14%
O=C(c1cc(-c2ccncc2)nc2ccccc12)N1CCN(c2ncccn2)CC1	-6%
CN(CC(=O)N1CCN(c2ccccn2)CC1)S(=O)(=O)c1ccc(Br)cc1	2%
CC(NCc1ccc(N(C)C)cc1)C1CC2CCC1C2 (stereo not drawn)	-17%
C[C@H](CO)N1C[C@H](C)[C@@H](CN(C)C(=O)NC2CCCCC2)Oc2ccc(NC(=O)Nc3ccc(C(F)(F)F)cc3)cc2C1=O	6%
C[C@H](NC(=O)c1nc[nH]c1C(=O)N[C@@H](C)C(=O)OC(C)(C)C)C(=O)OC(C)(C)C	-16%
CCn1c(=O)c(C(=O)NC(C)c2ccccc2)c(O)c2ccccc21 (stereo not drawn)	3%
COCCOC(=O)c1[nH]c2c(c1C)C(=O)CC(c1cc(OC)c(OC)c(OC)c1)C2 (stereo not drawn)	-13%
CCOc1ccccc1NC(=O)COn1nnc2ccccc21	-16%
Cc1ccc(N2C(=O)N(CC(=O)NCc3ccccc3Cl)C(=O)C2C)cc1 (stereo not drawn)	2%
CC(C)(C)NC(=O)c1cc(-c2ccc3c(c2)OCO3)nc2ccccc12	0%
Cc1nn(-c2ccc(N3CCCCC3)nn2)c(C)c1CCC(=O)NCc1ccccc1	3%
CCN(CC)CCOC(=O)c1ccc(NC(=O)c2cn(-c3ccccc3)nc2-c2cccs2)cc1	8%
O=C(NCCCc1ccncc1)C1CCC(=O)N(CCc2cccc(F)c2)C1 (stereo not drawn)	7%
COc1cc(CN(C(=O)COc2ccc(Cl)c(C)c2)c2ccccn2)cc(OC)c1OC	2%
CCN1CCSc2ccc(C(=O)NCc3ccc(F)cc3)cc21	-12%
Cc1ccc(S(=O)(=O)NC2CCCC2)cc1C	-10%
COCCNC(=O)c1sc2ncn(CC(=O)Nc3ccc(C)c(Cl)c3)c(=O)c2c1C	12%
CCc1nnc(NC(=O)[C@@H]2CCCN2S(=O)(=O)c2ccc3c(c2)OCCO3)s1	13%
CC1=NN(c2ccccc2)C(=O)/C1=C\c1cn(-c2ccccc2)nc1C	3%
CC1CCCCN1Cc1c(O)ccc2c(=O)c(-c3ccccc3Cl)c(C(F)(F)F)oc12 (stereo not drawn)	-4%
CCOc1cc(/C=N/NC(=O)C2CCCC2)ccc1O	-2%
CC(OC(=O)CC1CCCCC1)C(=O)Nc1cccc(C#N)c1 (stereo not drawn)	-3%
CCCCOc1ccc(C(=O)Nc2ccncc2)cc1	-2%

Reprinted at random: 7 compounds from above, in no set order.
SMILES	VDR inh
CCCCOc1ccc(C(=O)Nc2ccncc2)cc1	-2%
CC1CCCCN1Cc1c(O)ccc2c(=O)c(-c3ccccc3Cl)c(C(F)(F)F)oc12 (stereo not drawn)	-4%
Cc1ccc(S(=O)(=O)NC2CCCC2)cc1C	-10%
CCc1nnc(NC(=O)[C@@H]2CCCN2S(=O)(=O)c2ccc3c(c2)OCCO3)s1	13%
CC(OC(=O)CC1CCCCC1)C(=O)Nc1cccc(C#N)c1 (stereo not drawn)	-3%
CCOc1cc(/C=N/NC(=O)C2CCCC2)ccc1O	-2%
CCN1CCSc2ccc(C(=O)NCc3ccc(F)cc3)cc21	-12%

Continuation.
SMILES	VDR inh
CCc1nnc(NC(=O)CSc2nnc(-c3ccc(NS(=O)(=O)c4ccccc4)cc3)o2)s1	-5%
COc1ccc(CCN(C(=O)/C=C/C(=O)O)C2CC(=O)N(c3ccccc3)C2=O)cc1 (stereo not drawn)	1%
CC(Oc1ccc(Br)cc1Cl)C(=O)Nc1ccncc1 (stereo not drawn)	-14%
Cc1nnc(NC(=O)CSCc2ccccc2)s1	-3%
CC(C)CC(=O)c1c[nH]c(C(=O)NCC2CCCO2)c1 (stereo not drawn)	3%
O=c1c2ccccc2[nH]c2ccc(F)cc12	25%
O=C1C2C(c3cccc(/C=C/c4ccccc4)c3)CC=CC2C(c2ccc3ccccc3c2)N1Cc1ccccc1 (stereo not drawn)	-10%&16%
CCN(CC(=O)Nc1c(F)cccc1F)C(=O)CSc1nc2ccccc2o1	0%
Fc1ccc(NCc2nnc(SCc3nnc(-c4ccccc4)o3)n2CC2CCCO2)cc1 (stereo not drawn)	19%
COC(=O)C1CCN(c2csc3ccc(Cl)cc3c2=O)CC1	20%

Sorted by the number under VDR inh (highest first): 4 of the compounds above.
Structure	VDR inh
CCN(CC)CCOC(=O)c1ccc(NC(=O)c2cn(-c3ccccc3)nc2-c2cccs2)cc1	8%
O=C(NCCCc1ccncc1)C1CCC(=O)N(CCc2cccc(F)c2)C1 (stereo not drawn)	7%
Cc1nnc2n1N=CC=C(C(C)(C)C)S2	-3%
CCOc1ccc(NC(=O)C2CCN(S(=O)(=O)CC)CC2)cc1	-4%

(continued)
SMILES	VDR inh
Cc1cccc(NS(=O)(=O)c2ccc(C(=O)N3CCN(c4ccccc4O)CC3)cc2)c1C	-13%
Cn1nc(C(F)(F)F)c(-c2ccc(F)cc2)c1NC(=O)Nc1ccc(F)cc1	11%
CC(C)Oc1cccc(C(=O)C2CCCN(Cc3ccc4nonc4c3)C2)c1 (stereo not drawn)	5%
CCN1CCN(S(=O)(=O)c2ccc(Cl)c(C(=O)NC(C)c3ccccc3Cl)c2)CC1 (stereo not drawn)	3%
COc1ccc(C(CNC(=O)C2CCN(S(=O)(=O)c3ccc(F)cc3)CC2)N(C)C)cc1 (stereo not drawn)	-30%
CN(C)CCNC(=O)c1cc2c(s1)-c1ccc(Cl)cc1SC2	-9%
CNc1nc(-c2c(C)noc2C)nc2ccccc12	?
Cc1ccccc1CSCCNC(=S)Nc1ccccc1	-4%
CNC(=O)C(=O)Nc1cc2c3c(c1)CCC(=O)N3CCC2	11%
CCN(CC)CCCNc1nnc(C)c(=O)[nH]1	15%
Cc1ccc(NC(=O)C2(S(=O)(=O)c3ccc(Cl)cc3)CC2)cc1	2%
CN1C(=O)C(O)(CC(=O)c2ccc(F)cc2)c2cc(Br)ccc21 (stereo not drawn)	-19%
COc1ccc(S(=O)(=O)N2CCCC(C(=O)NCC3CCCO3)C2)cc1OC (stereo not drawn)	-2%
COc1ccc(NC(=O)CC2C(=O)N(c3ccc(OC)cc3)C(=S)N2NC(=O)c2cccc(F)c2)cc1 (stereo not drawn)	6%
COCC(C)NC(=O)c1cccc([N+](=O)[O-])c1 (stereo not drawn)	-5%
Nc1c(Cl)ncnc1N/N=C/c1ccccn1	-21%
COc1ccccc1-c1cc(C(=O)N/N=C\c2cn(C)nc2C)c2ccccc2n1	-9%
O=C(NC1CC(=O)N(c2ccccc2)C1)c1ccc(S(=O)(=O)N2CCCC2)cc1 (stereo not drawn)	12%
c1ccc2c(NCCN3CCOCC3)nc(-c3ccc4c(c3)OCO4)nc2c1	-4%
COc1ccccc1N(C)S(=O)(=O)c1ccc(Cl)c(C(=O)Nc2ccccc2N2CCOCC2)c1	11%
Cc1cc(C)cc(Nc2cc(C)nc3nc(C)nn23)c1	-17%
COc1ccc(Cl)cc1NC(=O)CSc1nnc(-c2ccco2)o1	14%
Cc1cccc(OCC(O)CNC(=O)c2ccccc2C(=O)O)c1 (stereo not drawn)	-1%
O=S(=O)(CC(O)COc1ccc(Br)cc1)c1ccccc1 (stereo not drawn)	-12%
O=C(NCc1ccccc1)c1onc(CSc2ccc(F)cc2)c1C(=O)NCc1ccccc1	-15%
CCOC(=O)c1sc(N2C(=O)c3oc4ccccc4c(=O)c3C2c2ccc(C(C)(C)C)cc2)nc1C (stereo not drawn)	3%
Cc1ccccc1SCC(=O)NCCCn1ccnc1	-4%
CCN(CC(=O)Nc1cc(Cl)ccc1C)C(=O)c1ccc2c(c1)NC(=O)C(C)S2 (stereo not drawn)	-14%
CCOC(=O)N1CCN(C(=O)C2CCCN(S(C)(=O)=O)C2)CC1 (stereo not drawn)	3%
CC(C)Sc1ncc(Cl)c(C(=O)Nc2c(C(=O)Nc3ccccc3)oc3ccccc23)n1	9%
CC(/C=C/c1ccccc1)=N\NC(N)=S	-3%
O=C1NC(=O)/C(=C\c2ccc(Sc3ccc(Cl)cc3)o2)N1	-3%
O=C(CCc1nc(-c2ccccc2Cl)no1)Nc1cccnc1	-11%
COc1ccc(Cl)cc1C(=O)Nc1nc(C)cc(C)n1	-21%
COc1cccc(C=NCCNC(=O)c2nonc2N)c1O	?
CCOC(=O)C1C(=O)OC2(CCCCC2)C1C(=O)OCC (stereo not drawn)	10%
Cc1ccc(OCC(=O)NCCN2CCCC2)cc1	9%
O=C(c1ccc2c(c1)OCO2)N(c1ccccc1)C1C=CS(=O)(=O)C1 (stereo not drawn)	10%
COc1ccc(N(C(=O)C2COc3ccccc3O2)C(C(=O)NC2CCCCC2)c2ccccc2)cc1OC (stereo not drawn)	11%
CCC1CN(C(=O)N2CCC(C(=O)NCCC3=CCCCC3)CC2)c2cc(C)ccc2O1 (stereo not drawn)	3%
Cc1ccc(-c2c[n+](CC(=O)c3ccc(Br)cc3)c3n2CCCCC3)cc1	-9%
CNC(=O)CN1C(=O)NC2(CCc3ccccc3C2)C1=O (stereo not drawn)	-24%
Cc1ccc(OCC(=O)Nc2ccccc2-c2ccccc2)cc1	11%
CSc1ccc(CNC(=O)CN2C(=O)C3CCCCN3c3ccc(C(=O)N4CCCC4)cc32)cc1 (stereo not drawn)	1%
Cc1cc(C(=O)Nc2nnc(C(F)(F)F)s2)cs1	-11%
CCc1ccc(N2CC(C(=O)NC3CC3)CC2=O)cc1 (stereo not drawn)	-4%
CC(=O)Nc1nnc(SCC(=O)N2CCc3ccccc32)s1	8%
COc1ccc(C2=NN(C(=O)CCC(=O)O)C(c3ccccc3)C2)cc1 (stereo not drawn)	-6%
O=C(NCCc1ccc(F)cc1)c1cc([N+](=O)[O-])ccc1N1CCOCC1	-10%
Cc1ccc2nc(N(CCN(C)C)C(=O)c3cc(Cl)sc3Cl)sc2c1	-13%

Two of the compounds above, with bars between the fields.
canonical_smiles | VDR inh
Cc1ccc(-c2c[n+](CC(=O)c3ccc(Br)cc3)c3n2CCCCC3)cc1 | -9%
CNC(=O)CN1C(=O)NC2(CCc3ccccc3C2)C1=O (stereo not drawn) | -24%

Carrying on.
SMILES	VDR inh
NC(CSS(=O)(=O)O)=NCCC12CC3CC(CC(O)(C3)C1)C2	40µM*
Cn1c(Cc2ccccc2)nnc1SCC(=O)N1CCCCC1	7%
CCCCCN(C(=O)CCC(=O)OCC(=O)N1CCCC(C)C1)c1c(N)n(CCCC)c(=O)[nH]c1=O (stereo not drawn)	-10%
CCN1CCN(c2nc3c(C)cccn3c(=O)c2/C=C(\C#N)S(=O)(=O)c2ccc(Cl)cc2)CC1	-9%
N#Cc1cc([N+](=O)[O-])ccc1NC(=O)COC(=O)C1CC2CCCC(C1)C2=O (stereo not drawn)	2%
CCNC(=O)COC(=O)c1cc(-c2ccccc2)nn1-c1ccccc1	-18%
COc1ccc(CC(=O)NCC(=O)NCc2cc(=O)n(C)c(=O)n2C)cc1	-4%
Nc1ccc2nc(-c3ccc(Cl)cc3)[nH]c2c1	2%
CC(=O)Nc1ccccc1OCc1cc(=O)n2c(C)csc2n1	5%
CCCCn1c(N)c(N(CCOC)C(=O)COC(=O)Cc2cccc(OC)c2)c(=O)[nH]c1=O	-1%
COc1ccc(S(=O)(=O)N2CCOCC2)cc1NC(=O)C1COc2ccccc2O1 (stereo not drawn)	-2%
Cc1ccc(C(=O)N/C(=C/c2ccco2)C(=O)NCc2ccco2)cc1	-19%
CC(=O)NC1C(OCc2ccccc2)OC2COC(C)(C)OC2C1O (stereo not drawn)	17%
COc1ccccc1N1C(=O)C2C(C(=O)c3ccccc3)=NN(c3ccccc3OC)C2C1=O (stereo not drawn)	-6%
O=C1NC(c2ccccc2)(C(F)(F)F)SC2=CCCCCN12 (stereo not drawn)	-2%
CCOc1cc(C2NC(=O)NC2=O)ccc1O (stereo not drawn)	-7%
COc1ccc(S(=O)(=O)N2CCc3ccccc3C2)cc1	4%
COc1ccc(NC(=O)c2cc(Br)c(Br)s2)cn1	-2%
CCOC(=O)CNc1c(-c2ccc(O)cc2)nc2ccccn12	-26%
Cc1cc(C)c(NC(=O)CSc2nncn2-c2cccnc2)c(C)c1	6%
